Source: PubChem
HPGD block = blocks human HPGD enzyme activity; purified HPGD, NADH fluorescence kinetic, PGE2 substrate; Potency, µM, for inactives: top-dose activity change, negative = inhibition, most hits filed as inhibitors; 150,000 compounds, 4.3% hits; active = well fitted inhibition curve with a large enough effect (not every such curve was filed as active); inconclusive = small, poorly fitted or top-dose-only effect, or another doubt; inactive = no such curve, though single readings can be large or run the other way;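 note: top concentration of the series not given in the record; plate controls included wells without enzyme; inactives centre near -10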
Target sequence (P15428 whole entry, looked up): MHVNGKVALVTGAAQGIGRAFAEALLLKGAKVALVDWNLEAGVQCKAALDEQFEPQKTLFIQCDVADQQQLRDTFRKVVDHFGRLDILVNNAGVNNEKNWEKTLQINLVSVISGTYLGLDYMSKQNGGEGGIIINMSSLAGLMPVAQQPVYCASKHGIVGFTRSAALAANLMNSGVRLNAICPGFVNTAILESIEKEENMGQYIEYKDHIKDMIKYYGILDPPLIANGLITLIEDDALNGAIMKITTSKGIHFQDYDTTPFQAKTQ
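20 nM HPGD preincubated 15 min at room temperature with compound in 50 mM Tris-HCl pH 8, 0.01% Tween 20. Started with 1 mM NAD+ and 30 uM prostaglandin E2; NADH fluorescence (360/450 nm) read 5 times over 30-s intervals, last minus first.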
* hit, by the source's call; ? = inconclusive; & = joins results of further samples; [ ] = another dose, or the depositor's remark. % is set by controls: 0 for no effect and ±100 for the full control effect; potency is the fitted concentration of half-maximal effect. This is a subset (hit frequency here may not be typical).

SMILES	HPGD block
COc1ccc(C(=O)N2CCCC(c3nc(-c4cccs4)no3)C2)cc1OC (configuration not stated)	-7%
O=C(COC(=O)CCc1c[nH]c2ccccc12)NCc1ccc(Cl)cc1	?
O=C(c1cccn2c(=O)c3cc(Cl)ccc3nc12)N1CCOCC1	?
CC(NC(=O)c1ccccc1O)c1ccccc1 (configuration not stated)	?
Cc1ccc(C(=O)N2CCC(C(N)=O)CC2)cc1C	-13%
CN(C)c1ccc(CN(C(=O)COc2ccc(F)cc2)C2CCS(=O)(=O)C2)cc1 (configuration not stated)	-4%
COc1cccc(C(=O)N/N=C(/CCC(=O)O)c2ccccc2)c1	-12%
O=C(O)c1ccc(COc2ccc(/C=N/NC(=O)c3cccs3)cc2)cc1	-13%
COc1ccc(Cl)cc1NC(=O)c1ccco1	-2%
N/C(=N\OC(=O)Cc1ccccc1[N+](=O)[O-])c1ccncc1	-7%
Cc1cc(C)nc(N/C(=N\S(=O)(=O)Cc2ccccc2)Nc2ccc(F)c(Cl)c2)n1	-3%
O=C(OC(C(=O)NCc1ccco1)C(OC(=O)c1ccccc1)C(=O)NCc1ccco1)c1ccccc1 (configuration not stated)	0%
Nn1nnc2ccccc21	-11%
CCCCc1ccc(NC(=O)COc2ccc(C(=O)Nc3ccccc3OC)cc2)cc1	-12%
COc1ccc(C(NC(=O)/C=C/c2ccco2)c2ccc(OC)c(OC)c2)cc1 (configuration not stated)	?
CS(=O)(=O)N(CC(=O)N1CCN(c2cccc(Cl)c2)CC1)C1CCCCC1	-9%
COc1ccc(N(CC(=O)Nc2ccccc2C(=O)NCCc2ccccc2)S(C)(=O)=O)cc1OC	-6%
C=CCN1C(=O)C2(/C(=C(\O)c3ccc4c(c3)OCCO4)C(=O)C(=O)N2CCCOC)c2ccccc21 (configuration not stated)	-18%
CCOC(=O)c1c(-c2ccc(C)c(C)c2)csc1NC(=O)C1CC=CCC1C(=O)O (configuration not stated)	-24%
Cn1c(=O)[nH]c(=O)c2c1nc(NCCCn1ccnc1)n2CCOc1ccccc1	-10%
COc1cccc(C(=O)Oc2c(CN3CCOCC3)cc(Cl)c3cccnc23)c1	-5%
COc1cc(OC)cc(C(=O)Nc2ncc3c(n2)CC(C)CC3=O)c1 (configuration not stated)	-11%
COc1ccc(C)cc1NC(=O)c1cc2ccccc2o1	?
CC1=CC(C)(C)N2C(=O)C3(SCC(=O)N3c3ccc(O)cc3)c3cc(C)cc1c32 (configuration not stated)	-11%
Cc1nn(CC(O)Cn2cnc3c2c(=O)n(C)c(=O)n3C)c(C)c1Br (configuration not stated)	-6%
CCCCNC(=O)NS(=O)(=O)c1cnccc1Sc1ccc(Cl)cc1	0%
CN(C)C(=O)c1cn(-c2ccccc2)c(=O)c2ccccc12	-9%
COc1ccc(C(=O)COC(=O)C2CCN(S(=O)(=O)c3cccc4cccnc34)CC2)cc1	-11%
COc1ccc(-c2cn3c4c(sc3n2)CCCC4)cc1	-14%
C[C@H]1CC[C@H]2C(=O)N3[C@H](c4cccc(N5CCCC5=O)c4)[C@@H](C)CC[C@H]3C(=O)N2[C@@H]1c1cccc(N2CCCC2=O)c1	-4%
O=C(CN1CCOCC1)n1c2ccccc2c2ccccc21	-2%
c1csc(-c2nn3c(Cn4cnc5ccccc54)nnc3s2)c1	?
COc1ccc2c(c1)OC(c1ccccc1)(C(F)(F)F)NC2=O (configuration not stated)	-5%
Cc1csc(NC(=O)c2ccc(S(=O)(=O)N(C)c3ccccc3)cc2)n1	-16%
CC1CN(S(=O)(=O)c2cccc3cnccc23)CCN1 (configuration not stated)	-10%
Cc1ccc2c(c1)C1OCCC1C1N2C(=O)C2C(C(=O)O)C3C=CC21O3 (configuration not stated)	-14%
O=C(CSc1nnnn1C1CCCC1)Nc1ccc2c(c1)OCCO2	1%
COC(=O)C1CCN(C(=O)N2CCOCC2)CC1	0%
CCOC(=O)C1CCN(c2c(N(C)Cc3ccco3)c(=O)c2=O)CC1	-1%
Cc1ccc(C)c(CSc2nnc(-c3cccnc3)o2)c1	25µM*

Among those listed so far, five have a furan ring, fused or not:
SMILES	HPGD block
COc1ccc(Cl)cc1NC(=O)c1ccco1	-2%
O=C(OC(C(=O)NCc1ccco1)C(OC(=O)c1ccccc1)C(=O)NCc1ccco1)c1ccccc1 (configuration not stated)	0%
COc1ccc(C(NC(=O)/C=C/c2ccco2)c2ccc(OC)c(OC)c2)cc1 (configuration not stated)	?
COc1ccc(C)cc1NC(=O)c1cc2ccccc2o1	?
CCOC(=O)C1CCN(c2c(N(C)Cc3ccco3)c(=O)c2=O)CC1	-1%

Records listed above printed as active in HPGD block:
SMILES	HPGD block
Cc1ccc(C)c(CSc2nnc(-c3cccnc3)o2)c1	25µM*

(list continues)
SMILES	HPGD block
COC(=O)C1(CC(C)C)C=C2C(=C(c3ccccc3)C(=O)C2C)CN1 (configuration not stated)	?
Cc1ccc(N(CC(N)=O)C2SC(=O)N(Cc3cccc(C(=O)O)c3)C2=O)cc1 (configuration not stated)	-9%
O=C(COC(=O)c1ccccc1Nc1ccccc1)NCc1ccccc1Cl	?
CCCCn1c(-c2cccnc2)n[nH]c1=S	-13%
CCOC(=O)N1CCC(NC(=O)CCS(=O)(=O)c2ccc3c(c2)CCN3C(C)=O)CC1	-9%
CCOC(=O)C(=O)Nc1ccccc1C(=O)NC(C)C	0%
CCOC(=O)N1CCN(C(=O)C2CCN(C(=O)c3cc(OC)cc(OC)c3)CC2)CC1	1%
O=C(COC(=O)CNC(=O)C1CCCCC1)Nc1ccc(Cl)cn1	-8%
Cc1cccc(C)c1NC(=O)C1(N(Cc2ccco2)C(=O)c2ccccn2)CCCC1	-1%
O=C(O)C1OC(Oc2c(-c3ccc(O)c(O)c3)oc3cc(O)cc(O)c3c2=O)C(O)C(O)C1O (configuration not stated)	-15%
Cc1ccc2cc(C(=O)O)c(C)nc2c1	-3%
COC(=O)c1ccc(C(NC(=O)OCc2ccccc2)/C(F)=C/[C@@H](C)C(=O)NCc2ccc(OC)c(OC)c2)cc1 (some centres not stated)	-11%&-8%
COc1ccc(CC(=O)O/N=C(\N)c2cccc([N+](=O)[O-])c2)cc1	-7%
CCOc1ccccc1NC(=O)C(OC(=O)c1ccc(CC)cc1)c1ccccc1 (configuration not stated)	-4%
CCN(CC)CCn1c(-c2ccccc2)nc2c(NCCOC)nc(C)nc21	?
CCC(NC(=O)C1(C)CC1(Br)Br)c1ccc(C)cc1 (configuration not stated)	-18%
CCCCCn1c(=NC(=O)c2ccco2)c(C(=O)OCC)cc2c(=O)n3ccccc3nc21	?
CCOC(=O)C1=C(C)NC(C)=C(C(=O)OCC)C1	-1%
N#Cc1ccc(CN2CCCC3(CCN(C(=O)c4cccc(F)c4)CC3)C2)cc1	-13%
CCOC(=O)C1=CN(c2cccc(F)c2)C=C(C(=O)OCC)C1c1cc(OC)c(O)c([N+](=O)[O-])c1	?
CCOc1ccc(S(=O)(=O)N(CC)CC)cc1NS(=O)(=O)c1ccc(F)c(F)c1F	-1%
COc1cccc(C(=O)N2CCC(N3CC(C)OC(C)C3)CC2)c1 (configuration not stated)	-4%
CSc1nc2cc(S(=O)(=O)N3CCOCC3)ccc2s1	-15%
Cc1cc(C)nc(SCc2nnc(SCC(=O)Nc3ccc(C)c(C)c3)n2Cc2ccco2)n1	-1%
Cc1ccc(C(=O)Nc2ccc(Br)c(C(F)(F)F)c2)cc1	-8%
CC(O)C#C[Si](C)(C)c1ccccc1 (configuration not stated)	-4%
NC(=O)c1c(N)sc(=S)n1CC1CCCO1 (configuration not stated)	-15%
CCOC(=O)c1c(NC(=O)Cn2cnc([N+](=O)[O-])n2)sc2c1CCCC2	-17%
CCC(=O)Nc1c(C)nn(C(=O)CC)c1C	-11%
Cc1ccc(NS(=O)(=O)c2cc(-c3n[nH]c(=O)c4ccccc34)ccc2C)cc1	20µM*
O=C1c2c(O)cc(O)cc2OC(c2ccc(O)c(O)c2)C1O (configuration not stated)	?
CCN(c1ccccc1)c1cc(NC)[n+](C)c(C)n1	0%
O=c1c2ccccc2cnn1-c1ccc2ccccc2c1	-13%
CC(C)OC(=O)CSc1nnc(-c2ccncc2)n1N	-3%
CC(=O)NCCOC(=O)Nc1sc(=S)n(C)c1C	-8%
O=C(CSc1nnnn1-c1cccnc1)NCc1cccs1	-20%
Cc1nc(-c2ccc(S(=O)(=O)N3CCCCCC3)cc2)cs1	-20%
Nc1ncnc2c1ncn2C1CCCO1 (configuration not stated)	-30%
c1ccc(OCCCN2CCCC2)cc1	-8%
C=CCSc1nc2ccccc2n1C(=O)/C=C/c1ccc(OC)c(OC)c1	-12%

Entries shown so far that have bromine:
SMILES	HPGD block
Cc1nn(CC(O)Cn2cnc3c2c(=O)n(C)c(=O)n3C)c(C)c1Br (configuration not stated)	-6%
CCC(NC(=O)C1(C)CC1(Br)Br)c1ccc(C)cc1 (configuration not stated)	-18%
Cc1ccc(C(=O)Nc2ccc(Br)c(C(F)(F)F)c2)cc1	-8%

Continued.
SMILES	HPGD block
CC12CCC(C(=O)NCC3CCCO3)(OC1=O)C2(C)C (configuration not stated)	5%
O=C(O)CSC1c2ccccc2C(=O)N1Cc1ccccc1 (configuration not stated)	-15%
CCOc1ccc2ccccc2c1/C=N/n1cncn1	32µM*
COc1ccc(NC(=O)c2cc3c(Cl)nc4ccccc4c3s2)cc1OC	-5%
O=C(Nc1ccc(-c2nc3ccccc3[nH]2)cc1)c1ccco1	?
Cc1csc(NC(=O)c2nc3nc(C)cc(C)n3n2)n1	-16%
CC(C)Oc1ccc(CNC2CCOC(C)(C)C2)cc1 (configuration not stated)	-10%
CCCc1ccc(OCC(=O)O)cc1	-3%
O=c1c(Cl)c(N/N=C/c2ccc(Cl)cc2)cnn1-c1ccccc1	?
CC(C)NC(=O)N1CCC2(CC1)CCN(C(=O)c1cccn1C)CC2	-6%
Cc1nc(-c2ccc3c(c2)OCO3)cs1	-18%
Cc1noc(C)c1COc1cccc(C(=O)Oc2ccc3c(c2)OCO3)c1	-16%
COc1ccc(S(=O)(=O)N(CCCN2CCCC2=O)Cc2cc3cc(C)c(C)cc3[nH]c2=O)cc1	45%[activator]
O=C(NCc1ccco1)c1nn(-c2ccccc2)c(=O)c2ccccc12	-10%
Cc1cc(C)n(-c2nc3ccccc3nc2N2CCN(C(=O)c3ccc(F)cc3)CC2)n1	-8%
N#Cc1c2n(c3c(=O)n(Cc4ccccc4)cnc13)CCCC2	-18%
CCOc1cc(/C=N\NC(=O)Cn2nc([N+](=O)[O-])cc2C)ccc1OCc1cccc2ccccc12	-8%
O=C(CSc1nc2c(c(C(F)(F)F)n1)CCc1ccccc1-2)NCc1ccco1	?
COc1nc(-c2cccs2)cc(-c2ccc(C)cc2)c1C#N	?
CCOc1ccc(-c2csc(NC(=O)c3ccc(S(=O)(=O)N4CCc5ccccc5C4)cc3)n2)cc1	-16%

Looked up by structure from the list above (2):
SMILES	HPGD block
O=C(Nc1ccc(-c2nc3ccccc3[nH]2)cc1)c1ccco1	?
CCOc1ccc2ccccc2c1/C=N/n1cncn1	32µM*

(more compounds)
SMILES	HPGD block
CC(=O)NCc1ccc(S(=O)(=O)N/N=C/c2ccccc2)cc1	-3%
Cc1ccc(S(=O)(=O)Oc2ccc(N=Nc3ccc(-c4ccc(N=Nc5c(O)ccc6cc(S(=O)(=O)O)cc(S(=O)(=O)O)c56)c(C)c4)cc3C)cc2)cc1	-22%
COc1cc(CO)cc(-c2cc(CO)cc(OC)c2OC)c1OC	-1%
Cc1cc(C)n(CC(C)O)c(=O)c1C#N (configuration not stated)	-16%
c1nc(N2CCC3(CC2)OCCO3)c2[nH]cnc2n1	-5%
COC(=O)[C@@]1(Cc2ccccc2)[C@H]2c3cc(C(=O)N4CCCC4)n(C)c3C[C@H]2CN1C(=O)c1ccccc1	-6%
CCCCNC(=O)COC(=O)c1cc(Br)ccc1Cl	?
C/C(=N\NC(=O)c1c(Br)c(C)nn1C)c1cccc(NC(=O)c2ccccc2F)c1	-14%
CCOC(=O)CCP(=O)(O)C(O)c1ccccc1 (configuration not stated)	-7%
COc1ccccc1NC(=S)NCc1cccs1	-19%
CCOC(=O)c1cnc(Nc2nc3ccccc3o2)nc1CN1CCN(C)CC1	-15%
O=C(CN1C(=O)C2CC=CCC2C1=O)OCCN1C(=O)c2ccccc2C1=O (configuration not stated)	-4%
COc1ccc(-c2c(C)n([O-])c3c([n+]2=O)CCCCC3)cc1	-5%
COc1ccc(N/C(=C(/C(Cl)=C(Cl)Cl)[N+](=O)[O-])n2nnc3ccccc32)cc1	-21%
Cc1cccc(OC(=O)C2C(c3ccccc3)C(C(=O)O)C2c2ccccc2)c1 (configuration not stated)	0%
COc1ccc(NC(=O)CSc2nnc(-c3cccnc3)o2)cc1	0%
CCOC(=O)NC(c1ccc(C(C)C)cc1)C(Cl)(Cl)Cl (configuration not stated)	-4%
C/C(=C\C(=S)Nc1ccccc1)Nc1cccc2ccccc12	?
CCOc1ccc(-c2nc(S(=O)(=O)c3ccccc3)c(NCc3cccnc3)o2)cc1	?
COc1ccc(C(=O)Nc2ccc(Cl)cc2C(=O)NCc2ccco2)cc1	?
Cc1ccc(C(NC(N)=O)c2ccccc2C)cc1 (configuration not stated)	2%
CCOC(=O)C1=C(C)Nc2nc(SCC(=O)OC)nn2C1c1cc(F)cc(F)c1 (configuration not stated)	-12%
COC(=O)c1ccc(Sc2ccccc2NS(=O)(=O)c2ccc(NC(C)=O)cc2)nc1	-15%
O=C(Nc1ccccc1)N1CCSc2cc(Cl)ccc21	-13%
COC(=O)c1ccc(C)c(NC(=S)NCc2ccc(Cl)cc2)c1	-11%
Cn1ccnc1C(O)(c1nnc(-c2ccccc2)o1)C(F)(F)F (configuration not stated)	-1%
